Source: PubChem BioAssay (National Center for Advancing Translational Sciences (NCATS))
ClpP mod: qHTS Assay for Activators of ClpP | AID 651965, 2013 | Potency, µM (series often up to 57.5 µM), for inactives: at the highest dose activity change, negative = active | 340,000 tested, 1.9% active | ATP-dependent Clp protease proteolytic subunit (Bacillus subtilis (strain 168)), P80244 | purified B. subtilis ClpP, FRET peptide cleavage, 20 min; active = well fitted falling curve with a large enough effect; inconclusive = small, poorly fitted or top-dose-only effect; inactive = no such curve, though single readings can be large or run the other way; note: potency is the fitted concentration of half-maximal effect; the source files actives as falling curves though it sought activators and does not explain the sign; nearly all actives have a fitted effect of over 65% in size; many hits overshoot -100%
Target sequence (P80244 whole entry, looked up): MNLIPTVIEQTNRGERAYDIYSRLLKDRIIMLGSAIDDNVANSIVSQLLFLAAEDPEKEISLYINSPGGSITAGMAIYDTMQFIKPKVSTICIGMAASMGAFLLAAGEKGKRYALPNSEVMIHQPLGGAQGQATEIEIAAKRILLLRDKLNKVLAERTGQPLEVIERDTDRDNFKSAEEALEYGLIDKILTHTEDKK
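Buffer: 100 mM Tris/HCl pH8, 100 mM KCl, 0.05% low protease BSA, 2.5% glycerol, 0.01% Tween-20. ClpP 10 microg/mL final; 20 min RT; delta FRET normalized to ADEP and DMSO controls.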
Menin MLL FP FL: displaces fluorescein MLL peptide from human menin; Fluorescence polarization, fluorescein-MLL peptide displacement from menin; FP activity change, % at 61.4 µM; 290,000 tested, under 10 active; inconclusive = falling polarisation curve, or a change in total fluorescence; inactive = total fluorescence flat and polarisation flat or rising; no compound was filed as active; the % refers to the polarisation; negative = inhibition;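 note: % of control where 0% means no effect; inhibitors lower the polarisation; unlabelled MLL peptide was the positive control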
gsp antagonist: gsp mutant antagonism; AID 624288; Potency, µM (titrated, usually from 76.9 µM), for the others: top-dose activity change, negative = inhibition, most hits filed as inhibitors; 340,000 tested, 0.4% active; gsp-mutant cells, cAMP HTRF, 30 min; control for the full effect not named in the record; active = falling curve of any shape with a large fitted effect; inconclusive = falling curve, mostly with a smaller effect; inactive = flat or rising curve; cell line not stated here;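 note: intracellular cAMP measured with PDE inhibitor Ro 20-1724 present during compound exposure; potency is the fitted concentration of half-maximal effect; % is set by controls: 0 for no effect and ±100 for the full control effect; nearly all actives have a fitted effect of over 65% in size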
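Cells in G418 medium, seeded 16-24 h, 37C; buffer exchange to DPBS + 1 mM CaCl2, 0.5 mM MgCl2, 0.05% BSA; cpds in DMSO + […] (300 uM stock), 30 min 37C; HTRF cAMP detection.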
TRPML1 inh: inhibitors of human TRPML1 channel. activity change, negative = inhibition, % (no concentration beside the values). 390,000 tested, 0.02% active. AID 624415. Q9GZU1. TRPML1-inducible cells, Ca2+ dye fluorescence, FDSS; hits give low values; inhibition of EC80 agonist-evoked calcium signal; in the data active means activity change below about -50%; inconclusive means about -30% to -50%; inactive means above about -30%;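 note: stimulus is agonist 54-4 at its EC80 concentration; % is set by controls: 0 for no effect and ±100 for the full control effect; compound concentration not given in the record; the text of the record puts the active cut at -80%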
Target sequence (Q9GZU1 whole entry, looked up): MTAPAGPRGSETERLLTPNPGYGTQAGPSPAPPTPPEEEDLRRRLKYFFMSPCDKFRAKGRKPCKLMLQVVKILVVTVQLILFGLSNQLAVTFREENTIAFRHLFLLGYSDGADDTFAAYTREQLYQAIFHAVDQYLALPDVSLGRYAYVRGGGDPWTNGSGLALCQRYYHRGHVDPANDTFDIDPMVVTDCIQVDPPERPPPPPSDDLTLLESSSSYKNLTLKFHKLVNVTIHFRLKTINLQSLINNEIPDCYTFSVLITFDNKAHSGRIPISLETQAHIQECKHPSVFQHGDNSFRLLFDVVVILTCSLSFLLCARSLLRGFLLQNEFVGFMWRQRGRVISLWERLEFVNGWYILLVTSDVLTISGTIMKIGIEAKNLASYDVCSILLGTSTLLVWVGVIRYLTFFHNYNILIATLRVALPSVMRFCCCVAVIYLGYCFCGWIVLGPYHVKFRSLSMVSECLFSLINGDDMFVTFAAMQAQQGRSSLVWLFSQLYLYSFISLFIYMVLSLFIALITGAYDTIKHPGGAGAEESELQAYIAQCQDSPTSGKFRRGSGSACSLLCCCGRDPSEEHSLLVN
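TRPML1-DL cells, Tet-induced overnight (~16 h, 37 °C) at 1,500 cells/well, were loaded with Ca8 no-wash dye plus quencher for 45-90 min at room temperature. Compounds were pinned during FDSS kinetic reading; agonist 54-4 at EC80 (4 uM final) then added.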
TRPML1 ag: human mucolipin-1 channel agonism; AID 624414; activation, % (concentration not given with the values); 410,000 tested, 0.12% active; TRPML1-expressing cells, Ca2+ dye fluorescence, FDSS; host cell line not named in the record; reference of the full effect not given here; in the data active = activation above about 50%; inconclusive = about 30% to 50%; inactive = below about 30%; note: 0% is about no effect; the text of the record puts the active cut at 80%
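Cells: TRPML1-DL, 1X Tet inducer, ~16 h at 37 degrees C/5% CO2. Dye: ABD Ca8 no-wash + quencher, 45-90 min RT. Read: 10 s baseline, compound add, 110 s agonist phase; 54-4 EC80 (4uM final), 110 s antagonist phase.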
gsp agonist: activates gsp, the McCune-Albright syndrome mutation. gsp mutant cells, cAMP HTRF, 30 min; control for the full effect not named in the record. Potency, µM (series often up to 76.9 µM), inactives show top-dose activation (cAMP increase), hits mostly activators. 340,000 tested, 0.13% active; active = well fitted activation curve with a large enough effect; inconclusive = small, poorly fitted or top-dose-only effect, or another doubt; inactive = no such curve, though single readings can be large or run the other way; cell line not stated here;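 note: phosphodiesterase inhibitor Ro 20-1724 added with compounds to block cAMP breakdown; potency is the fitted concentration of half-maximal effect; nearly all actives have a fitted effect of over 60% in size; about a fifth of the inactives were tested at one dose only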
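Cells in DMEM/10% FBS with G418 were pretreated with compounds in DMSO plus […] (300 uM stock) for 30 min at 37C. cAMP was measured by HTRF (cAMP-d2 plus anti-cAMP antibody-K) after 30 min at room temperature.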
* hit, by the source's call; ? = inconclusive; . = no result given; & = joins results of further samples; [ ] = another dose, or the depositor's remark. No enrichment for hits; 2.1% or so of the library scored in one or more.

Structure	ClpP mod	Menin MLL FP FL	gsp antagonist	TRPML1 inh	TRPML1 ag	gsp agonist
CCOC(=O)CCNC(=O)N1CCCC(Cc2ccccc2)(C(=O)OCC)C1 (stereo unspecified)	-1.6%	2.4	4.1%	-1.2	0.9	-16.1%
Cc1noc(C)c1C(=O)OCC(=O)NC(=O)NC12CC3CC(CC(C3)C1)C2	0.8%	-0.6	8.8%	-8.0	0.5	-31.4%[inhibitor]
COCCSc1nnc(NC(=O)c2ccc(NC(=O)C(C)C)cc2)s1	-19.7%	4.0	7.1%	-10.3	0.6	-5.9%
O=S(=O)(c1cc(Br)c(Cl)s1)N1CCCC1	-1.6%	0.4	-4.8%	2.4	1.8	-16.7%
Nc1c(S(=O)(=O)c2cccs2)c2nc3ccccc3nc2n1/N=C/c1cccc(O)c1	2.82µM*	4.1	-31.0%	29.5	-0.3	-43.3%[inhibitor]
O=C(COCc1cc(-c2ccc3c(c2)OCO3)on1)NCc1ccc(F)cc1	-9.4%	.	.	6.9	0.5	.
CC1CC(=O)N(CC(=O)Nc2ccc(F)cc2F)c2ccccc2S1(=O)=O (stereo unspecified)	0.4%	0.3	-0.7%	-6.6	-0.9	16.1%
CCCCNC(=O)c1cccc(-n2cnc3cccnc32)c1C	-0.9%	.	.	40.7	0.5	.
COc1cc(/C=N\Nc2nc3ccccc3o2)cc(OC)c1OC	-0.6%	-3.8	-1.7%	-7.1	-0.2	-12.7%
COc1ccc(NC(=O)CSc2nnc(C3CCCCC3)n2N)cc1	.	-0.6	14.7%	1.4	-0.1	4.3%[15.4 µM]
CC(OC(=O)CCC(=O)c1cccs1)C(=O)Nc1ccc(Cl)cn1 (stereo unspecified)	-2.1%	3.2	7.1%	-1.0	-0.1	16.0%
O=C(NCc1ccccc1)c1cc[n+]([O-])cc1	-1.5%	1.1	3.7%	16.8	0.9	24.6%
CN(N=O)c1ccc(CC2CCc3ccccc32)cc1 (stereo unspecified)	-1.8%	.	7.3%	-4.3	11.8	16.1%
Cc1nn(-c2ccc(C(=O)N3CCN(S(=O)(=O)c4ccccc4C(F)(F)F)CC3)cc2)c(C)c1Cl	-0.2%	.	2.8%	19.0	1.8	-11.5%
CCn1cc(C2=NOC(C(=O)Nc3cccc(C(C)=O)c3)C2)c(C)n1 (stereo unspecified)	-2.5%	8.7	-18.9%	-3.5	1.6	-43.2%
CC(C)(C)c1cc[n+](CC(=O)Nc2cc(C(F)(F)F)ccc2N2CCOCC2)cc1	.	-3.5	.	-8.1	0.6	-10.6%[15.4 µM]
Cc1ccc(C(=O)Nc2c(C)cc(-c3ccc(Cl)cc3)oc2=O)cc1	14.1µM*	4.8	12.0%	18.5	-0.4	-22.4%
COc1cc(OC)c(C(=O)NCc2ccc3c(c2)OCO3)cc1OC	.	-0.3	-0.1%	10.0	0.0	1.4%
O=c1oc(CCO)cc2ccccc12	-7.9%	.	6.2%	12.4	-0.7	6.9%
C/C(=N\NC(=O)c1cc(C)nc2ccccc12)c1ccc([N+](=O)[O-])cc1	1.6%	3.7	-21.3%	2.6	-0.5	13.7%
CCOC(=O)CNC(=O)CSc1nc2ncc(Br)cc2[nH]1	15.8µM*	1.7	-7.6%	4.4	-0.5	13.5%
CCCCn1c(N)c(N(Cc2ccccc2OC)C(=O)c2cc(CC)c(C)s2)c(=O)[nH]c1=O	-3.3%	.	0.0%	6.1	1.8	-8.6%
O=C(CN1Cc2ccccc2C1=O)Nc1ccc2c(c1)OCCO2	1.6%	-11.9	9.2%	-12.8	-0.4	-7.1%
Cc1cc(N2CCN(C(=O)Nc3ccc(F)cc3F)CC2)c2ccccc2n1	1.2%	-10.5	1.8%	9.6	-1.0	2.9%[15.4 µM]
O=C(CN1C(=O)NC2(CCCC2)C1=O)OCc1ccccc1	0.9%	.	13.4%	0.3	-0.3	-34.2%[inhibitor]
Cn1c(=O)oc2cc(S(=O)(=O)N3CCC(C(=O)NCC4COc5ccccc5O4)CC3)ccc21 (stereo unspecified)	-2.9%	-0.3	7.3%	1.8	-1.0	-3.6%
COc1ccc(-c2cc(-c3cccs3)c(C#N)c(SCC(=O)NCc3ccco3)n2)cc1	?	3.5	-9.7%	2.0	1.6	-30.2%[inhibitor]
O=C(Cn1cnc2c(oc3nc4c(cc32)CCCC4)c1=O)Nc1ccccc1	-7.7%	.	8.3%	-17.0	0.7	22.0%
COc1ccc(F)c(CN2CCCC(CNS(=O)(=O)c3cccc4cccnc34)C2)c1 (stereo unspecified)	-1.2%	.	2.5%	-2.6	0.7	?
CC1(C(=O)O)C=CCN1C(=O)c1ccccc1 (stereo unspecified)	-1.3%	2.1&-0.2	2.6%	-4.4	-0.4	.
COC(=O)[C@H](CC(C)C)NC(=O)/C=C/[C@H]1O[C@@H](n2cc(C)c(=O)[nH]c2=O)C[C@@H]1O	0.3%	.	.	-20.2	0.1	.
COC(=O)[C@H]1C[C@@]2(O)CN(S(=O)(=O)c3ccc(C)cc3)C[C@@]2(OC(=O)NCc2ccc(OC)c(OC)c2)C[C@H]1C(=O)OC	1.0%	.	.	28.1	-0.4	?
CCC(C)NC(=O)CSc1nc2c(sc3ccccc32)c(=O)n1CCc1ccccc1 (stereo unspecified)	-6.0%	.	.	-7.6	-0.8	.
COc1ccc(-c2noc(N3CCC(C(=O)Nc4ccc(F)cc4Cl)CC3)n2)cc1	1.5%	.	.	1.7	0.8	.
Cc1ccc(C(=O)NNC(=O)C2CCCN(c3ncccn3)C2)cc1 (stereo unspecified)	-21.8%	0.9	-8.6%	-0.7	-0.7	0.1%
Cn1c(SCC(=O)c2ccc(F)cc2)ncc(C(=O)Nc2ccccc2)c1=O	-9.7%	.	-6.3%	27.2	1.3	22.0%
O=C(COC(=O)Cn1cnc2ccccc21)Nc1cccc(S(=O)(=O)N2CCOCC2)c1	.	-3.6	0.5%	4.2	-0.3	-8.9%[15.4 µM]
COc1ccc(-n2c3c(cc(C(=O)NCc4ccco4)c2=O)C(=O)CC(C)(C)C3)cc1	.	0.3	-11.2%	8.5	-1.4	2.8%[15.4 µM]
Oc1cccnc1SCc1ccccc1	-5.7%	.	8.2%	2.2	1.1	-43.4%
CCC(C)NS(=O)(=O)c1ccc(OCC(=O)NCc2cccnc2)cc1 (stereo unspecified)	-2.2%	6.6	-2.4%	29.1	-0.7	?
CC(=O)c1c(C)n(-c2ccccc2)c2ccc(O)cc12	2.9%	0.2	-7.1%	-0.3	0.9	1.2%
CCOC(=O)C1(Cc2ccc(OC)cc2)CCN(C(=O)CN2CCN(CC)CC2)CC1	.	10.4	-4.8%	2.1	0.4	-22.0%
O=C(N/N=C/c1ccc(Sc2nc3ccccc3[nH]2)o1)c1ccncc1	?	2.1	9.3%	-6.9	0.1	10.3%
Cc1cc(C)n(C2CC(=O)N(c3ccccc3)C2=O)n1 (stereo unspecified)	0.5%	0.4	9.1%	4.3	2.2	14.0%
CC(C)(C)NC(=O)C(c1ccc(O)cc1)N(C(=O)CCC(=O)Nc1nccs1)c1ccc(F)cc1 (stereo unspecified)	.	-0.2	-6.5%	-1.9	1.3	-6.7%
O=C(c1ccc(Cl)cc1)N1CCCC(C(=O)N2CCCCC2)C1 (stereo unspecified)	1.7%	-5.0	8.2%	2.8	0.3	?
CCN1CCN(c2cc(SC(C)C)nc(-c3ccc(OC)cc3)n2)CC1	-8.0%	0.5	9.8%	23.5	0.3	6.7%
CC1Oc2ccccc2OC1(O)c1ccc2ccccc2n1 (stereo unspecified)	-1.4%	6.6	11.4%	-14.1	-0.8	6.1%[15.4 µM]
CCOC(=O)CSc1cc(=O)n(C)c2cc(Cl)ccc12	-12.3%	-1.6	-18.8%	0.1	0.5	15.8µM*
CCCN(c1ccccc1F)S(=O)(=O)c1cc(-c2cc(C)no2)ccc1OC	-1.8%	.	-5.2%	23.7	0.3	-10.2%
COC(=O)c1nc2n(n1)C(c1ccc(OC)c(OC)c1)C(C(=O)OC1CCCCC1)=C(C)N2 (stereo unspecified)	-1.3%	-1.5	-2.2%	-7.3	-1.2	-5.5%
Cc1ccc2oc3nc(C)c(C(=O)Nc4cccc(C(F)(F)F)c4)cc3c(=O)c2c1	-11.8%	14.0	7.8%	-8.2	-0.2	0.9%
Cc1ccc(Cl)cc1NC(=O)Nc1cccc(OCc2cc(=O)n3ccccc3n2)c1	-5.1%	.	.	46.4	1.2	.
Nc1ccccc1-c1ccn[nH]1	.	.	6.0%	-0.6	-0.5	19.7%
C/C(=N/NC(=O)CN1CCN(Cc2ccccc2Cl)CC1)c1ccncc1	1.3%	0.3	-1.5%	17.2	-0.1	39.2%
COc1ccccc1C1=NOC(C)(c2sc(-c3ccccc3)nc2C)C1 (stereo unspecified)	-3.4%	.	6.1%	-12.4	0.7	.

New compounds follow
Structure	ClpP mod	Menin MLL FP FL	gsp antagonist	TRPML1 inh	TRPML1 ag	gsp agonist
c1ccc2c(c1)CCN(c1nc(CN3CCOCC3)nc3sc4c(c13)CCCC4)C2	-2.2%	5.3	8.8%	57.8	1.7	10.0%
COc1cccc(C(=O)C[n+]2ccccc2/C=N/O)c1	.	1.0	-0.5%	-1.1	-0.3	0.5%
CCN1CCN(S(=O)(=O)c2ccc(Cl)c(C(=O)Nc3nnc(CC(C)C)s3)c2)CC1	-1.5%	2.8	-12.1%	19.6	-1.2	-10.2%
CC(=O)c1c(C)[nH]c(C(=O)OCC(=O)NCCc2ccc(F)cc2)c1C	0.5%	5.1	-18.6%	7.1	-1.2	-17.0%
CCOC(=O)/C(C(=O)Nc1ccc(Br)cc1)=C1/NC(C)(C)Cc2ccccc21	-3.1%	2.3	-14.5%	-23.5	2.4	-28.2%
O=C(O)CC/C(=N\Nc1ccc([N+](=O)[O-])cc1)c1ccccc1	0.0%	?	31.6µM*	-9.9	2.6	8.0%[15.4 µM]
CC(=O)c1sc(N/N=C2\CC3CC2C(C)C3(C)C)nc1C (stereo unspecified)	.	17.7	-15.6%	15.3	1.5	-7.9%
C=CCNC(=S)N1CCN(CCN=CC2=C(O)CC(c3ccco3)CC2=O)CC1 (stereo unspecified)	-0.8%	2.3	-0.4%	10.6	1.8	-15.6%
COC(=O)c1sccc1NC(=S)Nc1cc(C)cc(C)c1	-2.2%	-0.1	2.2%	-12.4	-0.9	-4.8%[15.4 µM]
COc1ccc(-n2c(SCC(=O)NCc3ccccc3)nc3ccsc3c2=O)cc1	-2.3%	.	.	-16.9	0.2	.
CCc1noc(C)c1C(=O)NNC(=O)COc1ccc(C)cc1	.	.	8.9%	-8.8	-0.9	25.8%[15.4 µM]
Cc1ccc(C)c(C(=O)CCC(=O)N2CCN(c3cccc(C(F)(F)F)c3)CC2)c1	-0.3%	.	-9.1%	5.9	1.3	-37.9%[inhibitor]
